Mtb H37Rv: M. tuberculosis H37Rv growth inhibitors, H37Rv strain (AID 1626). M. tuberculosis H37Rv growth inhibition; higher % means a stronger effect. inhibition, % at 10 µM, or IC50 in µM where a hit was titrated. 220,000 tested, 0.95% active;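 active = confirmed in a dose series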;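 also: bacteria incubated seven days before Alamar blue readout; 0% = bacteria only wells and 100% = bacteria with antibiotic wells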
Arbovirus inh: antivirals against arbovirus infection, primary screen, cell-based, full library, 10K replicate subset. AID 1251, 2008. 200,000 tested, 0.37% active. inhibition, % at 10 µM. arbovirus infection cell-based antiviral screen;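 active = inhibition from about 30%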;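 also: bluetongue infection of BSR cells; cell survival read as ATP light after 72 h; 0% = infected wells without compound and 100% = uninfected wells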
Mtb betalactam: beta-lactam sensitization of Mtb H37Rv, H37Rv. 330,000 tested, 0.27% active. inhibition, % at 25 µM. M. tuberculosis H37Rv growth with meropenem, percent inhibition; hits of this screen are not shown here. AID 434955, 2010;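 active = about 74% or more and at least 40 points above the plate without the antibiotic, then above 30% in a dose series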;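 also: growth measured after seven days incubation then overnight dye step; 0% = bacteria only wells and 100% = bacteria with antibiotic; twin plates without the antibiotic show which effects depend on it; some results filed as inactive read as strong as hits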
YopH inh: YopH tyrosine phosphatase inhibitors, primary screen, biochemical, fluorescence Ex485/Em525. inhibition, %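 (about 10 µM by stock and volumes)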. 140,000 tested, 0.16% active. YopH tyrosine phosphatase [Yersinia enterocolitica];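 active = inhibition of 50% or more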;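 also: controls were vehicle for no effect and minimum signal wells for full effect; inactives centre near -20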
RecA intein inh: Mtb RecA intein splicing inhibitors, primary screen, biochemical, fluorescence, HTS; 290,000 tested, 0.75% active; inhibition, %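 (about 9 µM by stock and volumes)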; cell-free RecA intein splicing; Protein RecA (Mycobacterium tuberculosis (strain ATCC 25618 / H37Rv)), P9WHJ3; in the data active = inhibition above about 30%;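 also: 0% = vehicle wells and 100% = reference inhibitor control wells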
Target sequence (P9WHJ3 whole entry, looked up): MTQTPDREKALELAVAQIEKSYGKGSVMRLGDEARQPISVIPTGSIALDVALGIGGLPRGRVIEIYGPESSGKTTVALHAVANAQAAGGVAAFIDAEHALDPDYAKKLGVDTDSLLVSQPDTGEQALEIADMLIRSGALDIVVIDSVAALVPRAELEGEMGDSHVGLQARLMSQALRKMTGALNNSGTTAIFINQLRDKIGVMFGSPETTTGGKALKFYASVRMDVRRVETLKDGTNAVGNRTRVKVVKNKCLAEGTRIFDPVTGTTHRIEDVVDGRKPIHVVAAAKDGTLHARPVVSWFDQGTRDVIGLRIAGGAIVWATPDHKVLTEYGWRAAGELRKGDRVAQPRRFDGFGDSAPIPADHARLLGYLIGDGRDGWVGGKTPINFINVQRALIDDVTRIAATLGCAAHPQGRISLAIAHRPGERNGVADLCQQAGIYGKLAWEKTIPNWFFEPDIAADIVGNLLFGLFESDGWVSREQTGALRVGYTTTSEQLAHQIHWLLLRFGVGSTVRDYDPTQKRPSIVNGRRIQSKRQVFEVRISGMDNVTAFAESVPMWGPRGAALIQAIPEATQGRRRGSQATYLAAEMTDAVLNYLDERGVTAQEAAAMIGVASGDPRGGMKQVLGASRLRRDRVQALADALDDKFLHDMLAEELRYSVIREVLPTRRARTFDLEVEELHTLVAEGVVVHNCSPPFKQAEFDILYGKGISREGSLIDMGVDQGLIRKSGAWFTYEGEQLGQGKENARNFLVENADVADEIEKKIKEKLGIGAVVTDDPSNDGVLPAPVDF
Arbovirus inh repeat: recorded beside Arbovirus inh, whose call it bears; inhibition, %; measured here: 10K subset replicate screen; many hits read low in the repeat;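 first of two repeat runs on a subset; 0% = infected and 100% = uninfected wells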
The depositor's hits bear a star; . = not tested or not shown.

SMILES | Mtb H37Rv | Arbovirus inh | Mtb betalactam | YopH inh | RecA intein inh | others
O=C(c1ccoc1)N1CCCC(N2CCN(c3ccc(F)cc3)CC2)C1 (stereo not drawn) | . | . | -11 | . | 1.0
N/C(=N\OC(=O)Cc1ccc(Cl)cc1)c1cccnc1 | 0% | -8 | -1 | -3 | 1.7
Cc1cc(OCC(=O)N(C)Cc2ccccc2)ccc1Br | . | . | -1 | . | 2.5
CC(=O)Oc1ccc2occ(/C=N/c3cc(=O)[nH]c(=S)[nH]3)c(=O)c2c1 | -11% | . | 0 | . | -2.6
Cn1c(=O)c(C(=O)c2ccc(S(C)(=O)=O)c(Cl)c2Cl)c(O)c2ccccc21 | . | . | -2 | . | -3.9
O=C(COc1ccc2ccccc2c1)NNC(=O)c1cccs1 | 6% | -3 | 7 | -22 | -1.1
COc1cc(S(=O)(=O)n2nc(C)cc2C)ccc1Cl | . | . | 3 | . | -1.3
CCCn1c(=O)c2ccccc2n2c(SCCOc3ccc(OC)cc3)nnc12 | 3% | -1 | 6 | -45 | 2.9
Cn1c(Cc2cccc3ccccc23)nnc1SCc1ccc([N+](=O)[O-])cc1 | 4% | 21 | 10 | 10 | 3.4
CC(Cc1ccccc1)NC(=O)CSc1nc2nc3c(cc2c(=O)n1-c1ccccc1)COC(C)(C)C3 (stereo not drawn) | 7% | 2 | -5 | 2 | 6.9
Cc1c(C(=O)N2CCOCC2)c(S(=O)(=O)Nc2ccc(Br)cc2F)c(C)n1C | . | . | -3 | . | -2.3
Cc1cccc(C(=O)N2CCC(=O)N(C(COCc3ccccc3)Cc3ccccc3)CC2)c1 (stereo not drawn) | -1% | -8 | 0 | -24 | 5.7
COC(=O)c1cn(NC(=O)c2ccc(F)cc2)c(=O)c2ccccc12 | 0% | -7 | 6 | 13 | -0.8
CC1(C)CC(=O)C=C(NC2=CC3OC(c4ccccc4)OCC3OC2=O)C1 (stereo not drawn) | -13% | 4 | -10 | -25 | 3.8
COc1ccc(/C=C/c2nnc(NC(=O)COc3ccc(C)cc3)s2)cc1 | -3% | -5 | 9 | -9 | -5.9
COc1ccc(CNC(=O)c2cc(=O)c3c(C)cc(C)cc3o2)cc1 | . | . | -1 | . | -3.6
Cc1cccn2c(=O)nc(SCC(=O)N3CCOCC3)nc12 | . | . | 0 | . | 1.9
CCc1ccc(N(CC(=O)NCc2ccco2)C(=O)CCC(=O)Nc2ccccn2)cc1 | . | . | 2 | . | 0.2
CC(C)(C)c1cc(C(F)(F)F)nc(SCCCNC(=O)c2ccco2)n1 | 2% | 5 | 7 | 0 | 3.1
COc1ccc(NC2CCCN(C(=O)c3cccs3)C2)cc1 (stereo not drawn) | . | . | -4 | . | -1.7
Cc1[nH]c2ccccc2c1/C=N/NC(=O)c1cccc(Br)c1 | . | . | -2 | . | 0.5
CCN(CC)CCN(C(=O)/C=C/c1cccs1)c1nc2ccc(C)cc2s1 | . | . | -6 | . | 0.3
CCOC(=O)c1nnn(-c2ccc(OC)cc2)c1N | 3% | 5 | -1 | 30 | .
CN(C)c1ccc(/C=N/NC(=O)c2ccc(Cn3cc(Br)cn3)o2)cc1 | -5% | -12 | 2 | -33 | -1.8
Cc1ccc(S(=O)(=O)NCc2nc(-c3ccccc3)no2)cc1 | . | . | 9 | . | 2.6
CCOc1cc(OCC)cc(C(=O)O)c1 | -1% | 1 | 11 | -17 | 2.6
Cc1cc(NC(=O)COC(=O)c2ccccc2S(=O)(=O)N(C)c2ccccc2)no1 | -2% | 16 | 2 | . | 1.7
CCCCCOc1ccc2oc(=O)c3c(c2c1)CCCN3C(=O)CN1CCCC(C(=O)OCC)C1 (stereo not drawn) | -12% | -25 | -5 | 5 | 19
CCN(CC)c1ccc(/C=c2\sc3nc4ccccc4n3c2=O)c(O)c1 | 1% | 25 | . | . | .
CCOC(=O)Nc1cc(C(=O)OC)cc(C(=O)OC)c1 | -6% | -3 | 0 | -34 | -2.0
COc1cc(C)c(C(C)C)cc1S(=O)(=O)n1ccnc1 | -1% | 4 | 2 | -13 | 0.9
CCc1ccc(N(CC(=O)NC2CCCC2)S(=O)(=O)c2c(C)noc2C)cc1 | -8% | -1 | -8 | -11 | 1.5 | Arbovirus inh repeat=-7
CCCN1CCC(NC(=O)Nc2cc(Cl)ccc2OC)CC1 | 4% | 8 | -6 | . | -1.0
CC1CCN(c2ccc(NC(=O)c3ccccc3[N+](=O)[O-])cc2)CC1 | -3% | 7 | 3 | . | -4.6
O=C(c1cccnc1)N1CCN(c2c(Cl)cccc2[N+](=O)[O-])CC1 | -13% | 8 | 33 | -32 | 1.6
CCn1cc(Cl)c(C(=O)Nc2cccc(CN3CCOCC3)c2)n1 | . | . | -5 | . | -1.9
CC(=O)Nc1ccc(S(=O)(=O)NCCC(=O)OCc2nc(N)nc(Nc3ccccc3C)n2)cc1 | . | . | -4 | . | 0.4
Oc1ccccc1N=Cc1ccc[nH]1 | 3µM* | -42 | 99 | 19 | 3.4
COc1cccc(NC(=O)c2c(C)cc(C)cc2CC(C)(C)C(=O)O)c1 | -2% | . | 1 | . | 0.9
CC(Sc1nnc(COc2ccc(Cl)cc2)n1-c1ccccc1)C(=O)O (stereo not drawn) | . | . | 5 | . | 0.7
CCOC(=O)c1ccc(NC(=O)CCNS(=O)(=O)c2ccc3c(c2)oc(=O)n3C)cc1 | -12% | 11 | -4 | -22 | -9.6
O=C(Nc1c2c(nc3ccccc13)CCCC2)c1ccccc1Cl | 1% | 0 | -1 | -15 | 4.4
CN(Cc1ccc(OC(F)F)cc1)C(=O)c1ccccc1Sc1ccccc1C#N | . | . | -14 | . | 11
COc1ccccc1-c1nc2n(n1)C(c1cccs1)C(C(=O)Nc1cccnc1)=C(C)N2 (stereo not drawn) | -15% | -2 | 2 | -1 | -0.1
CC(=O)Cc1nsc(Nc2cccc(C)c2)n1 | -1% | 2 | 7 | . | -1.5
O=C(COC(=O)c1ccc(-c2ccccc2)cc1)Nc1ccccc1-c1ccccc1 | -9% | -8 | -5 | -2 | 2.6
O=C(CN1C(=O)C2CCCCC2C1=O)Nc1nc(-c2ccc(F)cc2)cs1 (stereo not drawn) | . | . | 6 | . | -1.6
CS(=O)(=O)c1ccc2nc(NC(=O)c3ccc(S(=O)(=O)NCC4CCCO4)cc3)sc2c1 (stereo not drawn) | 4% | 7 | 0 | . | -0.4
CCC[N+](CC#CCO)(CC#Cc1ccccc1)CCC | . | . | 0 | . | 0.8
COc1cc(NC(=O)CSCc2ccccc2)c(C(=O)O)cc1OC | . | . | 3 | . | 1.7
(further entries)
SMILES | Mtb H37Rv | Arbovirus inh | Mtb betalactam | YopH inh | RecA intein inh | others
C=CCn1c(SCC(=O)NC(=O)NCC(C)C)nnc1C1CCCCC1 | 6% | 4 | -1 | -11 | -4.7
O=C(O)c1cccc(N2C(=O)c3ccc4c5c(ccc(c35)C2=O)C(=O)N(c2cccc(C(=O)O)c2)C4=O)c1 | -12% | . | -7 | . | -6.2
CN(C)C(=O)Oc1ccc(OCc2nc3ccccc3[nH]2)cc1 | -14% | -7 | 1 | -24 | -3.5
CCc1nc(SCC(=O)NCCc2ccccc2)c2c(=O)n(C)c(=O)n(C)c2n1 | -4% | . | 29 | . | -0.2
O=C(/C=C\Nc1ccccn1)c1ccc(Cl)cc1 | 6% | 6 | 6 | -48 | . | Arbovirus inh repeat=3
O=C(CCC(=O)N1CCN(Cc2ccccc2)CC1)Nc1nnc(C2CCCCC2)s1 | . | . | 1 | . | -2.6
COC(=O)c1ccc(/C=N/N2CCN(Cc3ccc(C)cc3C)CC2)cc1 | 67% | 11 | 28 | -18 | -0.6
CCCCNC(=O)c1ccc(NC(=O)C2CCCO2)cc1 (stereo not drawn) | 1% | 17 | 21 | -30 | -2.3 | Arbovirus inh repeat=0
O=c1cc(CO)oc(C(Nc2cccc(C(F)(F)F)c2)c2ccccn2)c1O (stereo not drawn) | 3% | -4 | -2 | . | -11
C=CCN1N=C(c2ccc(Cl)s2)CSC1=O | 10% | 9 | 8 | -28 | 4.4
CC1=C(C(=O)c2ccccc2)C(c2ccc(O)cc2)NC(=S)N1 (stereo not drawn) | -8% | . | -5 | . | 2.0
COc1ccc(CC(=O)Nc2cccc(S(=O)(=O)N3CCCCCC3)c2)cc1OC | 6% | 10 | -3 | -23 | 1.0
O=C(CSc1nnc(Cn2c(=O)sc3ccccc32)n1CCc1ccccc1)N1CCOCC1 | 6% | 0 | -10 | -25 | .
CN(CCS(=O)(=O)c1ccc(Cl)cc1)Cc1cccnc1 | 1% | . | -2 | . | 0.4
CCN(CC)S(=O)(=O)c1ccc(C(=O)OCCN2C(=O)CCC2=O)cc1 | -4% | 2 | 8 | . | 2.1 | Arbovirus inh repeat=0
CC(=O)c1cccc(NC(=O)CCS(=O)(=O)c2ccc(Br)s2)c1 | 2% | 14 | 3 | . | -15
Cc1cccc(NC(=O)CSCc2nc3c(nnn3Cc3ccc(F)cc3)c(=O)[nH]2)c1C | -4% | 3 | 2 | . | -6.1
COc1ccccc1-c1c(C)oc2c(CN3CCN(CCO)CC3)c(O)ccc2c1=O | . | 5 | . | -37 | -2.0
CC(=O)c1ccc(S(=O)(=O)N(C)C(C)CCc2ccco2)cc1 (stereo not drawn) | . | . | -4 | . | 1.0
Cc1ccc(C)c(NC(=O)C2CCC(C)(C(=O)O)C2(C)C)c1 (stereo not drawn) | 0% | 9 | 1 | -15 | -0.9 | Arbovirus inh repeat=1

For reference, some entries already given:
SMILES | Mtb H37Rv | Arbovirus inh | Mtb betalactam | YopH inh | RecA intein inh | others
O=C(CCC(=O)N1CCN(Cc2ccccc2)CC1)Nc1nnc(C2CCCCC2)s1 | . | . | 1 | . | -2.6
COC(=O)c1ccc(/C=N/N2CCN(Cc3ccc(C)cc3C)CC2)cc1 | 67% | 11 | 28 | -18 | -0.6
CCCCNC(=O)c1ccc(NC(=O)C2CCCO2)cc1 (stereo not drawn) | 1% | 17 | 21 | -30 | -2.3 | Arbovirus inh repeat=0
O=c1cc(CO)oc(C(Nc2cccc(C(F)(F)F)c2)c2ccccn2)c1O (stereo not drawn) | 3% | -4 | -2 | . | -11
C=CCN1N=C(c2ccc(Cl)s2)CSC1=O | 10% | 9 | 8 | -28 | 4.4
CC1=C(C(=O)c2ccccc2)C(c2ccc(O)cc2)NC(=S)N1 (stereo not drawn) | -8% | . | -5 | . | 2.0
COc1ccc(CC(=O)Nc2cccc(S(=O)(=O)N3CCCCCC3)c2)cc1OC | 6% | 10 | -3 | -23 | 1.0
O=C(CSc1nnc(Cn2c(=O)sc3ccccc32)n1CCc1ccccc1)N1CCOCC1 | 6% | 0 | -10 | -25 | .
CN(CCS(=O)(=O)c1ccc(Cl)cc1)Cc1cccnc1 | 1% | . | -2 | . | 0.4
CCN(CC)S(=O)(=O)c1ccc(C(=O)OCCN2C(=O)CCC2=O)cc1 | -4% | 2 | 8 | . | 2.1 | Arbovirus inh repeat=0
CC(=O)c1cccc(NC(=O)CCS(=O)(=O)c2ccc(Br)s2)c1 | 2% | 14 | 3 | . | -15
Cc1cccc(NC(=O)CSCc2nc3c(nnn3Cc3ccc(F)cc3)c(=O)[nH]2)c1C | -4% | 3 | 2 | . | -6.1
COc1ccccc1-c1c(C)oc2c(CN3CCN(CCO)CC3)c(O)ccc2c1=O | . | 5 | . | -37 | -2.0
CC(=O)c1ccc(S(=O)(=O)N(C)C(C)CCc2ccco2)cc1 (stereo not drawn) | . | . | -4 | . | 1.0
Cc1ccc(C)c(NC(=O)C2CCC(C)(C(=O)O)C2(C)C)c1 (stereo not drawn) | 0% | 9 | 1 | -15 | -0.9 | Arbovirus inh repeat=1

Other entries.
SMILES | Mtb H37Rv | Arbovirus inh | Mtb betalactam | YopH inh | RecA intein inh | others
CSC1=N/C(=C\c2cccc(F)c2)C(=O)S1 | -1% | 3 | -4 | -19 | -1.1
CC(C)Sc1nc(-c2ccccc2)cc(=O)[nH]1 | -5% | 8 | 3 | -14 | 2.9
CCN(c1ccc(OCC(=O)OCC(=O)c2c(N)n(C)c(=O)n(C)c2=O)cc1)S(=O)(=O)c1ccccc1 | -8% | 2 | -7 | . | 3.3
CCc1ccc(NC(=O)Cn2nnc(C(=O)NCc3ccco3)c2N)cc1 | . | . | -4 | . | 0.1
CCCc1cc(-c2n[nH]c(C(=O)OCC)c2-c2cscn2)c(O)cc1O | -8% | 16 | 13 | -61 | .
COc1cc(/C=C/C(=O)OCC(=O)Nc2ccc(S(N)(=O)=O)cc2)ccc1O | -7% | . | 1 | . | -1.5
COc1cc(/C=N/NC(=O)Cn2cnc3c2c(=O)n(C)c(=O)n3C)ccc1O | -2% | . | -7 | . | -3.0
Cc1ccc(OCC(=O)NCCCNC(=O)c2cnccn2)cc1C | . | . | 4 | . | 1.1
Cc1ccc(S(=O)(=O)C2(C(=O)NC3CCCCC3)CC2)cc1 | . | . | -4 | . | -0.9

High-throughput results as filed in PubChem BioAssay.

The list is partial (hit frequency here may not be typical).
